StopGo FLuc: Primary qHTS Assay for Foot and Mouth Disease Virus Antivirals against NCGC Sytravon and CBC Compound Libraries: Firefly Luciferase Signal; HEK cells with a luciferase reporter of 2A StopGo recoding; Potency, µM (top dose mostly 57.5 µM), for the others: at the highest dose signal change, negative = less light; actives 0.23% (n = 120,000); AID 1745856, 2022; active = well fitted falling curve with a large enough effect; inconclusive = small, poorly fitted or top-dose-only effect; inactive = no such curve, though single readings can be large or run the other way; note: nearly all actives have a fitted effect of over 60% in size; overnight with compound
2A Renilla: Primary qHTS Assay for Foot and Mouth Disease Virus Antivirals against NCGC Sytravon and CBC Compound Libraries: Renilla Luciferase Signal; HEK cells with a luciferase reporter of 2A StopGo recoding; Potency, µM (top dose mostly 57.5 µM), for inactives: at the top dose signal change, negative = less light; actives 0.32% (n = 120,000); AID 1745857, 2022; active means well fitted falling curve with a large enough effect; inconclusive means small, poorly fitted or top-dose-only effect; inactive means no such curve, though single readings can be large or run the other way; note: nearly all actives have a fitted effect of over 55% in size; overnight with compound
Starred values were filed as active, the others as inactive; ? = inconclusive; & = joins results of further samples; [ ] = remark or other dose. % is set by controls: 0 for no effect and ±100 for the full control effect; potency is the fitted concentration of half-maximal effect. This is a subset, so the mix of outcomes need not match the whole.

SMILES | StopGo FLuc | 2A Renilla
O=C(O)c1ccc(F)c(S(=O)(=O)N2CCCCC2)c1 | 15% | 10%
CCCCOc1ccc(S(=O)(=O)NCCO)cc1 | 0% | -4%[1.06 µM]
Cc1c(CC(=O)N2CCOCC2)c(=O)oc2cc(O)ccc12 | -4% | -7%
Cc1c(C(=O)Nc2cccc3cccnc23)cccc1[N+](=O)[O-] | 5% | 0%
CCc1ccc(NC(=O)N2CCC3(CC2)OCCO3)cc1 | 166%[activator] | 0%
CCOC(=O)C1=C(N)Oc2c(c(=O)oc3ccccc23)C12C(=O)Nc1ccc(Cl)cc12 (centres undefined) | 0% | 10%
Cc1nc2cc(F)cc(C(=O)O)c2nc1C | 0% | -2%
O=C(CSc1nnc(-c2ccc(F)cc2)o1)N1CCCc2ccccc21 | -8% | -4%
COc1ccc(S(=O)(=O)NCC(c2ccc(N(C)C)cc2)N2CCc3ccccc32)cc1OC (centres undefined) | 108%[activator] | 232%[activator]
Cc1ccc(-c2nnn(CC(=O)N3N=C(c4ccc(Cl)cc4)CC3c3ccco3)n2)cc1 (centres undefined) | 12% | 1%
COc1cc(/C=C/C(=O)OCc2ccc(C#N)cc2)cc(OC)c1OC | -9% | 2%
Cc1ccnc(NC(=O)COc2ccc3c(=O)c(Oc4ccccc4)c(C)oc3c2)c1 | 14% | -15%
CC12CN3CC(C)(CN(C1)C3c1ccccn1)C2=O (centres undefined) | -9% | -14%
CSc1cccc(NS(=O)(=O)c2cn(C)c(C)n2)c1 | -5% | 49%[activator]
CC1=C(c2ccc(C)c(C)c2)S(=O)(=O)N=C1N1CCC(C(=O)NCCc2ccc(Cl)cc2)CC1 | ? | -2%
O=C(NC1CCCCC1)c1ccc2ccccc2n1 | 224%[activator] | 71%[activator]
Cc1c(C(=O)OC2CCC(C)CC2)[nH]c2c1C(=O)CC(c1ccc(F)cc1)C2 (centres undefined) | -16% | -6%
COc1ccc2nc(C)c(C(=O)NC3CCCCCC3)cc2c1 | 44%[activator] | 23%
CCC(C)NC(=O)c1ccc(CSCc2ccccc2Cl)o1 (centres undefined) | 0% | 22%
Cc1ccc(Cn2c(N3CCC(C(N)=O)CC3)nc3c2c(=O)n(C)c(=O)n3C)cc1 | -1% | 8%
CCOC(=O)c1[nH]c(C)c(C(=O)OCC2CC2(Cl)Cl)c1C (centres undefined) | 0% | 7%
CCC(CC)C(=O)Nc1ccc(-c2cn3cccnc3n2)cc1 | 144%[activator] | 14%
Nc1sccc1C(=O)NCc1ccncc1 | -1% | -1%
CCc1ccc(N2C(=O)CN(S(=O)(=O)CC)CC2(C)C(=O)NC2CCCCC2)cc1 (centres undefined) | 12% | 25%
CCOc1ccccc1C(=O)Nc1nonc1-c1ccc(OC(C)C)cc1 | -26% | 3%
CCn1c(CN2CCCCC2)nc2cc(NC(=O)COc3ccc([N+](=O)[O-])cc3)ccc21 | -4% | -11%
Cc1ccc(S(=O)(=O)Nc2nc3ccc(C)cc3nc2Nc2ccc3c(c2)OCCO3)cc1 | 0% | 24%
O=C(NCCc1ccc(F)cc1)c1ccc(=O)[nH]c1 | 119%[activator] | 20%
CC(C)NC(=O)c1cccc([N+](=O)[O-])c1 | -3% | -13%
Cc1ccccc1C(=O)Nc1nonc1-c1ccc(Cl)cc1 | 15% | 70%[activator]

Compound profiles, from the list above. Values in the order: StopGo FLuc, 2A Renilla
Shown for CCOc1ccccc1C(=O)Nc1nonc1-c1ccc(OC(C)C)cc1 : -26%, 3%
Shown for CCc1ccc(N2C(=O)CN(S(=O)(=O)CC)CC2(C)C(=O)NC2CCCCC2)cc1 (centres undefined) : 12%, 25%
Shown for COc1ccc2nc(C)c(C(=O)NC3CCCCCC3)cc2c1 : 44%[activator], 23%
Shown for CCn1c(CN2CCCCC2)nc2cc(NC(=O)COc3ccc([N+](=O)[O-])cc3)ccc21 : -4%, -11%
Shown for CCC(C)NC(=O)c1ccc(CSCc2ccccc2Cl)o1 (centres undefined) : 0%, 22%

More structures follow:
SMILES | StopGo FLuc | 2A Renilla
Fc1ccc(COc2ccc(Cl)cc2)cc1 | 75%[activator] | 19%
CCOc1ccc(N(C)C(=O)CS(=O)(=O)c2cccc3nsnc23)cc1 | -13% | 0%
CC(C)=CC(=O)NC(C)c1ccc(Cl)c(Cl)c1 (centres undefined) | 24% | 12%
O=S(=O)(c1ccc2c(c1)CCN2)N1CCCCCC1 | -14% | -10%
COc1ccc(C2=C(Nc3ccc(C)c(C)c3)c3ccccc3C2=O)cc1 | 48%[activator] | 5%
CC(C)c1ccc(OCC(=O)Nc2cc(-c3nc4ncccc4o3)ccc2Cl)cc1 | 13% | -3%
O=C(NCc1ccc2c(c1)CCN2C(=O)c1ccncc1)c1cccc(F)c1 | -21% | -13%
COc1ccc2cc(C3Nc4ccccc4C(=O)N3C3CC3)ccc2c1 (centres undefined) | -3% | ?
O=C(NCC(O)c1ccc(F)cc1)Nc1ccc(F)cc1 (centres undefined) | 158%[activator] | 17%
COc1ccccc1C1C(C(=O)Nc2ccccc2)=C(C)Nc2nc(-c3ccccc3)nn21 (centres undefined) | -19% | -7%
CC(=O)c1cccc(NC(=O)C(c2ccccc2)n2cnc3c2c(=O)n(C)c(=O)n3C)c1 (centres undefined) | 21% | 13%
N#Cc1cccc(Oc2ccccc2-c2ccccc2Oc2cccc(C#N)c2C#N)c1C#N | -8% | 14%
CC(C)=C(/C(=C/CS(=O)(=O)c1ccccc1)S(=O)(=O)c1ccccc1)S(=O)(=O)c1ccccc1 | 16% | 28%
O=C(Cn1c(-c2cccs2)cc2cc(F)ccc21)N1CCCCC1 | -17% | 16%
CCCc1ncc(C(O)c2ccccc2OC)n1C (centres undefined) | -9% | -13%
Cc1ccc(S(=O)(=O)Nc2ccc3nc(-c4ccc(F)cc4)oc3c2)cc1 | 15% | 143%[activator]
O=C(NC1CCCC1)c1ccc2c(c1)OCCCO2 | 170%[activator] | 15%
COc1ccccc1-c1cc(=O)c2cc(NS(=O)(=O)c3ccccc3)ccc2o1 | 51%[activator] | 55%[activator]
NC(=O)NC(=O)COC(=O)c1cccc(Br)c1 | 9% | -1%
Cc1ccc(C)c(N2CCN(C(=O)Cn3c(-c4cccs4)cc4ccccc43)CC2)c1 | -11% | -9%
COc1ccc(-c2csc(/C(C#N)=C\c3ccccc3C(F)(F)F)n2)cc1 | 85%[activator] | 7%
COc1ccc(-c2nc3scc(CCNS(=O)(=O)c4c(C)cc(C)cc4C)n3n2)cc1OC | 1% | 329%[activator]
O=C(Cn1ccn(-c2ccc(F)c(F)c2)c(=O)c1=O)NCc1ccccc1 | -16% | -7%
COc1ccc(CCC(=O)Oc2ccc3c(c2)OCO3)cc1 | 0% | 3%[1.06 µM]
CC(C)N(Cc1ccccc1)S(=O)(=O)c1ccc(N2CCCCS2(=O)=O)cc1 | ? | 0%
Cc1cccc(C)c1NC(=O)Cn1c(=O)n(Cc2ccccc2Cl)c(=O)c2cccnc21 | -6% | -4%
Cc1cccn2c(=O)c3cc(C#N)c(=O)n(-c4nnc(SCc5ccccc5F)s4)c3nc12 | -12% | -9%
CCOc1cc2c(cc1/C=C(/C#N)c1ccccn1)OC(C)C2 (centres undefined) | 70%[activator] | -13%
CCOc1ccccc1NC(=O)c1sc2nc3n(c(=O)c2c1C)CCCCC3 | 11% | -9%
COc1cc(/C=C/C(=O)OC(C)C(=O)c2ccc(C)cc2)ccc1OCC#N (centres undefined) | -6% | -1%
CCc1nc2ccc(C(=O)N3CCN(c4cccc(C)c4C)CC3)cc2nc1CC | 4% | -5%
C=CCn1c(SCc2coc(-c3cccc(F)c3)n2)nnc1C1CCS(=O)(=O)C1 (centres undefined) | 6% | -13%
CCOc1ccc(CCC2CCN(C(=O)Nc3ccccc3OC)CC2)cc1 | 10% | -1%
Cc1ccc(NC(=O)Cn2nc(C)c3ccccc32)c(C)c1 | 2% | -1%
COC(=O)C(NC(=O)c1ccc(OC)cc1)(Nc1nc(C2CC2)cs1)C(F)(F)F (centres undefined) | 9% | 87%[activator]
NC(=O)NC(=O)CSC1=Nc2ccccc2CS1 | -11% | -17%
COc1ccc2[nH]c(C(=O)NCc3ccccn3)c(C)c2c1 | 148%[activator] | 29%
CCN(c1ccc(OC)cc1)S(=O)(=O)c1nnc(NC(=O)c2ccccc2C)s1 | 3% | 39%[activator]
COc1ccccc1CNC(=O)c1ccccc1NC(=O)c1nsc2ccccc12 | 38%[activator] | -1%
Cc1ccc(S(=O)(=O)NCCc2cn3c(C)csc3n2)cc1 | 15% | 62%[activator]
C/C(=N\NC(=O)c1cccs1)c1cccc2ccccc12 | 137%[activator] | 12%
CC(=O)c1c(C)[nH]c(C(=O)CSc2nnc(C3CC3)o2)c1C | 0% | -16%
CCOC(=O)c1c(C)[nH]c(C)c1S(=O)(=O)N(C)CC(=O)Nc1cccc(C(F)(F)F)c1 | -4% | 8%
Cc1ccc(-c2nn(C)c(=O)c3ccccc23)cc1S(N)(=O)=O | 40%[activator] | 141%[activator]
COc1ccc(-c2nc(C#N)c(NCC(c3cccs3)N3CCOCC3)o2)cc1 (centres undefined) | 0% | 6%

Filtered by structure: the compounds so far containing an NH in an aromatic ring.
SMILES | StopGo FLuc | 2A Renilla
Cc1c(C(=O)OC2CCC(C)CC2)[nH]c2c1C(=O)CC(c1ccc(F)cc1)C2 (centres undefined) | -16% | -6%
CCOC(=O)c1[nH]c(C)c(C(=O)OCC2CC2(Cl)Cl)c1C (centres undefined) | 0% | 7%
O=C(NCCc1ccc(F)cc1)c1ccc(=O)[nH]c1 | 119%[activator] | 20%
COc1ccc2[nH]c(C(=O)NCc3ccccn3)c(C)c2c1 | 148%[activator] | 29%
CC(=O)c1c(C)[nH]c(C(=O)CSc2nnc(C3CC3)o2)c1C | 0% | -16%
CCOC(=O)c1c(C)[nH]c(C)c1S(=O)(=O)N(C)CC(=O)Nc1cccc(C(F)(F)F)c1 | -4% | 8%

Next records:
SMILES | StopGo FLuc | 2A Renilla
C=C(Cl)CN1CCC(CC(N)=O)CC1 | -5% | -18%
CCCCNC(=O)Cn1nc(N2CCN(c3ccccc3OC)CC2)ccc1=O | 0% | -6%
O=C(COC(=O)Cc1ccc(Cl)cc1)NCc1ccc(Cl)cc1 | 29% | 8%
CC(C)(C)c1ccc(C(=O)Nc2ccc(F)c(F)c2F)cc1 | 194%[activator] | 2%
CC(=O)Nc1ccc(S(=O)(=O)Nc2ccc3c(c2)n(C)c(=O)n3C)c(C)c1 | 32%[activator] | 393%[activator]
O=c1[nH]c(CSc2nnc(-c3ccco3)n2C2CCCCC2)nc2ccccc12 | 3% | 2%
Cc1oc(-c2ccc(Cl)cc2)nc1CSc1nc2ncccc2[nH]1 | -10%&-20% | -9%&-17%
Cc1cc(C(=O)CN2CCN(c3ccc(O)cc3)CC2)c(C)n1C1CCS(=O)(=O)C1 (centres undefined) | 12% | 14%
CC1CCN(c2oc(-c3cccs3)nc2S(=O)(=O)c2ccc(Cl)cc2)CC1 | -13% | -12%
CC(=O)c1ccc(OCCCC(=O)OCc2ccc(C#N)cc2F)cc1 | 2% | 8%
Cc1ccccc1Cn1c(N2CCN(CC(N)=O)CC2)nc2c1c(=O)[nH]c(=O)n2C | -10% | -11%
Cn1c(=O)c2[nH]c(NCc3ccc(F)cc3)nc2n(C)c1=O | 6% | 1%
NC(=O)CSc1nnc(-c2ccccc2Cl)n1-c1cccc(C(F)(F)F)c1 | -2% | -4%
CC(C)Cc1ccc(S(=O)(=O)N2CCN(Cc3noc(CCC(=O)N4CCCCC4)n3)CC2)cc1 | -3% | -17%
COc1ccc2cc(C(=O)N3CCN(S(=O)(=O)c4cc(C)ccc4C)CC3)c(C)nc2c1 | -21% | -14%
CC12CN3CC(c4ccccc4)(CN(C1)C3c1ccc(O)cc1)C2=O (centres undefined) | -11% | -6%
Cc1ccc(-n2c(=O)c3c(C)c(C)sc3n(CC(=O)c3ccc(Cl)cc3)c2=O)cc1C | -16% | -10%
Cc1nc(N2CCN(C(=O)CN3CCCCC3)CC2)c(C#N)c2c1COC(C)(C)C2 | -16% | -13%
CCn1nc(C(=O)Nc2cccc(S(=O)(=O)N3CCCCC3)c2)c2ccccc2c1=O | 6% | 15%
CCN(CC)S(=O)(=O)NC(C)Cc1cccs1 (centres undefined) | -5% | 70%[activator]
COc1cc(CN(CC2CCCO2)C(=O)c2ccc(F)cc2)cc(OC)c1OC (centres undefined) | -9% | -6%
Cc1ccc(OCC(=O)NCCN2CCN(S(=O)(=O)c3ccc(C)cc3)CC2)cc1 | 0% | 22%
CN(C)CCNC(=O)CC1CCN(C(=O)c2nnc(C(=O)Nc3cccc(Cl)c3)s2)CC1 | 2% | 7%
Cc1ccc(Cl)cc1NC(=O)C(NS(=O)(=O)c1ccc2c(c1)CCC(=O)N2)c1ccccc1 (centres undefined) | -18% | 29%
O=C(NCCCO)C(O)(c1ccccc1)c1ccccc1 | -1% | -10%[1.06 µM]
CCOc1cc(/C=C/c2cc(C(=O)O)c3cc(C)ccc3n2)ccc1O | 0% | -5%
COc1cc(C#N)ccc1OCc1ccccc1C#N | 0% | 9%
COC(=O)c1ccccc1NC(=O)c1c(NC(=O)c2ccco2)sc2c1CCC(C(C)(C)C)C2 (centres undefined) | 0% | 18%
O=C(CCc1nnc2ccc(NCc3ccccc3)nn12)N1CCN(c2ccccc2)CC1 | -5% | 4%
CCOC(=O)C1=C(CN2CCN(c3ccc(Cl)cc3)CC2)NC(=O)NC1c1ccc(F)cc1 (centres undefined) | -16% | -3%
Cc1ccc(COc2ccc(Cl)cc2C=O)cc1 | 201%[activator] | -3%
CCN1C(=O)c2ccccc2S(=O)c2ccc(C(=O)N3CCN(c4ccccc4OC)CC3)cc21 (centres undefined) | -16% | -4%
CC(C(=O)NC1CC1)N1CCN(c2oc(-c3ccco3)nc2C#N)CC1 (centres undefined) | 8% | -4%
